Screening data deposited in PubChem BioAssay by National Center for Advancing Translational Sciences (NCATS).
PINK1 modulator = A Quantitative High throughput Screen to Identify Chemical Modulators of PINK1 Expression. Potency, µM (series often up to 76.6 µM), inactives show at the highest dose activation (PINK1 increase), most hits filed as activators. 0.2% of 410,000 active. PINK1 immunofluorescence, high-content cytometry, 24 h. AID 624263, 2012; active = well fitted activation curve with a large enough effect; inconclusive = small, poorly fitted or top-dose-only effect; inactive = flat fitted curve, though single readings scatter; cell line not stated here;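 also: potency is read from the fitted curve at half-maximal effect; % of control where 0% means no effect; nearly all actives have a fitted effect of over 65% in size; a mitochondrial uncoupler was the plate control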
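Decision-based qHTS: stable cells, 24 h exposure to five compound concentrations, CCCP as control. Fixed cells stained for PINK1 plus nuclear, mitochondrial and cell markers, cytometer read.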
D2 potentiator = Beta-Arrestin HTS for Positive Allosteric Modulators of the Human D2 Dopamine Receptor: Potentiators; DiscoveRx D2 beta-arrestin cells, luminescence, 90 min; 100% = 57 uM dopamine signal; 0.23% of 360,000 active; D(2) dopamine receptor (Homo sapiens), P14416; potentiation, % (concentration not given with the values); active = potentiation of 50% or more; inconclusive = 30% to 50%; inactive = 30% or less;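 also: compound concentration not given in the record; tested on top of an EC20 dose of dopamine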
Target sequence (P14416 whole entry, looked up): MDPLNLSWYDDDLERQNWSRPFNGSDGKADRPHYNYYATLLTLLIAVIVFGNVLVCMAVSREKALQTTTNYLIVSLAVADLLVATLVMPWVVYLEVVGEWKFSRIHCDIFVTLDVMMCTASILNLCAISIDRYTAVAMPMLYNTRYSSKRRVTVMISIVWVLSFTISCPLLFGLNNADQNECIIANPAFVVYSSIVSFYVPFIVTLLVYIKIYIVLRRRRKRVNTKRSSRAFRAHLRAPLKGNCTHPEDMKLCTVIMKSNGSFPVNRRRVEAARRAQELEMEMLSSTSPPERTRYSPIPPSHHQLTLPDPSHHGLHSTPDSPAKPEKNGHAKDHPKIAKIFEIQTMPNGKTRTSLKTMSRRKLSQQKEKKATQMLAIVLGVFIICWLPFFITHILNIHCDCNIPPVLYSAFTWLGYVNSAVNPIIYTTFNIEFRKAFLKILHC
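PathHunter beta-arrestin assay in DiscoveRx D2 cells. Compounds were added with an EC20 of dopamine (50 nM final) for 90 min at 37 deg C. Luminescence was read 1 h after detection reagent, with 57 uM dopamine as the EC100 control.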
TRPML1 blocker = qHTS for Inhibitors of the Human Mucolipin Transient Receptor Potential 1 (TRPML1); Mucolipin-1 (Homo sapiens), Q9GZU1; TRPML1-inducible cells, Ca2+ dye fluorescence, FDSS; stronger effect = lower value; inhibition of EC80 agonist-evoked calcium signal; 0.02% of 390,000 active; activity change, negative = inhibition, % (no concentration beside the values); AID 624415, 2012; in the data active means activity change below about -50%; inconclusive means about -30% to -50%; inactive means above about -30%;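 also: stimulus is agonist 54-4 at its EC80 concentration; % is scaled to controls: 0 for no effect and ±100 for the full control effect; compound concentration not given in the record; the text of the record puts the active cut at -80%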
Target sequence (Q9GZU1 whole entry, looked up): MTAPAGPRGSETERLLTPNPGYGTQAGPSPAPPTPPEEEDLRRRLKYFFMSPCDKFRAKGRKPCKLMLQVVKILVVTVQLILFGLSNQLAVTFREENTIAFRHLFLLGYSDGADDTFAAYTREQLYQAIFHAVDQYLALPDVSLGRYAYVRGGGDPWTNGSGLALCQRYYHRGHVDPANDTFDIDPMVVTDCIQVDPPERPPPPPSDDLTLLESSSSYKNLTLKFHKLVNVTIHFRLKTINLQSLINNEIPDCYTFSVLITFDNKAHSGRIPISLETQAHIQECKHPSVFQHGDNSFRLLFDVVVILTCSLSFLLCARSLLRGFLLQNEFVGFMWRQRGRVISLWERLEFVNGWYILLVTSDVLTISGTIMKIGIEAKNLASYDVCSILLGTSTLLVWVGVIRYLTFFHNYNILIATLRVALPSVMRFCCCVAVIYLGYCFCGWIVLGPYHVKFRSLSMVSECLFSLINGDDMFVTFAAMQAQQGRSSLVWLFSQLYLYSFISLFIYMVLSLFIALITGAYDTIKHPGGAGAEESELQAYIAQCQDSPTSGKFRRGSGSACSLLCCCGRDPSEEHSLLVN
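TRPML1-DL cells, Tet-induced overnight (~16 h, 37 °C) at 1,500 cells/well, were loaded with Ca8 no-wash dye plus quencher for 45-90 min at room temperature. Compounds were pinned during FDSS kinetic reading; agonist 54-4 at EC80 (4 uM final) then added.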
Six1-Eya2 inh = qHTS Assay for Inhibitors of the Six1/Eya2 Interaction. AlphaScreen GST-Six1/His-Eya2 binding, biochemical; stronger effect = lower value; control for the full effect not named in the record. 0.56% of 360,000 active. activity change, % (no concentration beside the values); in the data active = activity change below about -65%; inconclusive = about -30% to -65%; inactive = above about -30%; also: % is scaled to controls: 0 for no effect and ±100 for the full control effect; compound concentration not given in the record
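AlphaScreen luminescence read after one hour at 37 °C in darkness. Pin-transferred compounds met GST-Six1 and His-Eya2 protein (5X stock 250 nM/500 nM) plus glutathione donor and Ni-chelate acceptor beads (5X, 50 ug/mL).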
D2 ag = Beta-Arrestin HTS for Positive Allosteric Modulators of the Human D2 Dopamine Receptor: Agonists | D(2) dopamine receptor (Homo sapiens), P14416 | DiscoveRx PathHunter D2 beta-arrestin, luminescence, 90 min; 100% = 57 uM dopamine signal | activation, % (no concentration beside the values) | 0.084% of 360,000 active; in the data active = activation above about 40%; inconclusive = about 15% to 40%; inactive = below about 15%; also: compound concentration not given in the record; the text of the record calls up to 30% inactive
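Agonist mode: compounds alone added to overnight-plated D2 PathHunter cells for 90 min at 37 C, with 57 uM final dopamine (EC100) defining full response. Beta-arrestin recruitment detected by chemiluminescent reagent, read after 1 h at ambient temperature.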
TRPML1 ag = qHTS for Agonists of the Human Mucolipin Transient Receptor Potential 1 (TRPML1); 0.12% of 410,000 active; Mucolipin-1 (Homo sapiens), Q9GZU1; AID 624414, 2012; activation, % (test concentration not listed); TRPML1-expressing cells, Ca2+ dye fluorescence, FDSS; host cell line not named in the record; reference of the full effect not given here; in the data active = activation above about 50%; inconclusive = about 30% to 50%; inactive = below about 30%; also: 0% is about no effect; the text of the record puts the active cut at 80%
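Kinetic FDSS Ca2+ read in Tet-induced TRPML1-DL cells (ABD Ca8 dye plus quencher, 45-90 min RT loading): baseline, then compound, then 110 s agonist window; EC80 agonist 54-4 at 4uM final added afterwards for a 110 s antagonist window.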
An asterisk follows results filed as active; ? = inconclusive; . = not tested or not shown; [ ] = remark or other dose. Hits appear at their usual frequency. Share with any hit: about 1%.

Sample of the layout, 4 compounds:
canonical_smiles	Six1-Eya2 inh	TRPML1 blocker	TRPML1 ag	D2 ag	D2 potentiator	PINK1 modulator
Cc1cc(C)n(S(=O)(=O)c2cccc(Cl)c2Cl)n1	7	-4	1.1	1.7	-2	-3.3%[38.3 µM]
Cc1cc(SC2CCOC2=O)nc2ccccc12 (configuration not stated)	4	-5	3.8	5.0	-19	0.4%
Cc1cccc(NC(=O)C2CC(=O)N(c3ccc4c(c3)OCCO4)C2)n1 (configuration not stated)	-5	5	-1.2	-3.6	-2	2.7%
c1ccc(C2=NCCCO2)cc1	-2	5	-0.7	-6.6	1	1.0%

The list itself, from the first entry:
canonical_smiles	Six1-Eya2 inh	TRPML1 blocker	TRPML1 ag	D2 ag	D2 potentiator	PINK1 modulator
Cc1cc(C)n(S(=O)(=O)c2cccc(Cl)c2Cl)n1	7	-4	1.1	1.7	-2	-3.3%[38.3 µM]
Cc1cc(SC2CCOC2=O)nc2ccccc12 (configuration not stated)	4	-5	3.8	5.0	-19	0.4%
Cc1cccc(NC(=O)C2CC(=O)N(c3ccc4c(c3)OCCO4)C2)n1 (configuration not stated)	-5	5	-1.2	-3.6	-2	2.7%
c1ccc(C2=NCCCO2)cc1	-2	5	-0.7	-6.6	1	1.0%
COc1ccc(-c2nn(-c3ccccc3)cc2/C=C(\C#N)S(=O)(=O)c2ccccc2)cc1OC	4	-2	0.0	2.1	-13	6.4%
CC(C)N1C(=O)CCC1C(=O)N1CCC(Cc2ccccc2)CC1 (configuration not stated)	5	-1	-0.4	-1.3	-7	1.5%
Cc1ccc(-c2cc(C(=O)OC3CCOC3=O)c3ccccc3n2)c(C)c1 (configuration not stated)	2	47	-0.2	1.8	-5	1.4%
CCOC(=O)Nc1ccc2c(c1)N(C(=O)CN1CCN(C)CC1)c1ccccc1S2	-1	-4	-0.5	0.5	1	-3.6%[38.3 µM]
CCc1nc(SCC(=O)Nc2nnc(CC)s2)c2c(=O)n(C)c(=O)n(C)c2n1	15	5	0.2	1.5	-5	0.0%
CCCCN(C)CCCNC(=O)CN1C(=O)COc2ccc(S(=O)(=O)N3CCC(C)CC3)cc21	.	10	1.8	.	.	-2.0%
Cc1ccc2c(CC(=O)N(Cc3ccc(Cl)cc3)Cc3ccco3)coc2c1	.	40	5.1	.	.	2.5%
COc1ccc(-c2cc(C(=O)N3CCCC3)no2)cc1	-3	11	1.3	4.2	9	0.6%
CCN(CC)CCNC(=O)CCc1c(C)nc2c(c(C)nn2-c2ccc(C)cc2)c1C	-8	.	.	0.4	-18	0.5%
CC1(C)CC(NC(=O)C2CCN(S(=O)(=O)c3cccc(C(F)(F)F)c3)CC2)CC(C)(C)N1	21	-3	0.8	-2.4	-2	0.8%
O=C(c1ccco1)N1CCN(CC(=O)N2CCCc3c2c(=O)oc2ccc(O)cc32)CC1	-16	-13	0.0	-1.9	-4	-24%[38.3 µM]
COc1ccc(-n2nc3c(N4CCCC(C(=O)NCCc5ccc(C)cc5)C4)nnc(C)c3c2C)cc1 (configuration not stated)	.	14	1.8	.	.	0.7%
Cc1ccc(CCC(=O)Nc2ccc([N+](=O)[O-])cc2Cl)o1	-9	0	-0.3	4.6	-2	-0.4%
Cc1ccc(-c2ccc(CCC(=O)O)n2CC2CCCO2)cc1 (configuration not stated)	-3	-9	-0.6	-2.7	-10	0.9%[38.3 µM]
CSCCCNC(=O)c1ccc(OC2CCN(CCc3ccccc3)CC2)cc1	-1	-18	0.4	2.8	-9	-0.1%
CCOC(=O)C1CCN(CCC(=O)Nc2ccc(F)cc2)CC1	7	-14	-0.4	-0.6	-12	-1.6%
CS(=O)(=O)N(CC(=O)Nc1ccccc1C(=O)N1CCOCC1)c1ccc(F)c(Cl)c1	7	1	-0.5	2.9	-30	-0.5%
O=[N+]([O-])c1c(NCc2ccco2)ncnc1NCc1ccco1	-26	3	-0.4	-3.3	-4	0.5%
NS(=O)(=O)c1cccc(NC(=O)Cn2cc(C(F)(F)F)cc(Cl)c2=O)c1	2	-23	-0.5	-2.7	-5	0.8%
CC1=CC(C)(C)NC(=S)N1c1cccc2cc(S(=O)(=O)O)ccc12	-3	6	0.4	?	-4	1.0%
CC(C)[C@@H](C(=O)N1CCN(C(=O)OC(C)(C)C)CC1)n1cc(CCO)nn1	-2	16	-0.8	-0.4	-6	0.6%
CC(C)OCCCn1c(SCc2ccccc2C#N)nc2c(sc3ccccc32)c1=O	.	-12	0.9	.	.	-1.0%
CC1(C)Cc2c(C#N)c(NCCc3ccccc3)nc(-c3ccco3)c2CO1	34	0	0.6	-5.1	-10	8.9%
COc1ccc(-c2coc3cc(O)c(OC)cc3c2=O)cc1	10	-2	0.0	1.6	-40	0.6%
Cc1cccc(-n2ncc3c2CCCC3NC(=O)CC(F)(F)F)c1C (configuration not stated)	4	-7	-0.7	1.6	1	-0.1%
CC1([N+](=O)[O-])COC(C=Cc2ccccc2)OC1 (configuration not stated)	-7	-4	-0.6	-2.1	-7	3.1%
Cn1c(N)c(C(=O)CSc2nnc(NC3CCCCC3)s2)c(=O)n(C)c1=O	?	1	0.7	-3.6	6	0.7%
C#CCOCCOCCOCCNc1nc(N2CCN(C(=O)CCCCCCCCCCNC(=O)[C@@H](CCC(=O)O)n3cc(CCCCCN)nn3)CC2)nc(N2CCN(C(=O)CCCCCCCCCCNC(=O)[C@@H](CCC(=O)O)n3cc(CCCCCN)nn3)CC2)n1	-2	5	-0.2	-2.0	-2	-0.9%
Cc1cccn2cc(-c3cccc(NC(=O)C(C)C)c3)nc12	.	-3	0.7	.	.	-0.8%
O=C(O)c1ccc(Cl)c(S(=O)(=O)NCc2cccnc2)c1	0	-1	-0.1	-2.7	-4	-0.5%
CCC(=O)c1ccc(OCC(=O)N(Cc2nnc(-c3ccccc3Cl)o2)C2CC2)cc1	0	24	-0.6	0.1	6	4.4%
O=C(O)CNc1ncccc1[N+](=O)[O-]	4	-13	1.5	-2.9	-7	-0.7%
Cc1ccc(S(=O)(=O)NC(=O)NCCCN2CCOCC2)cc1	7	-8	0.4	-2.4	-2	-1.0%
O=C1CCC(=O)N1c1ccccc1	-14	3	-1.3	-3.4	-1	0.5%
O=C(NS(=O)(=O)c1ccccc1)c1ccccc1F	-2	-14	1.0	-0.3	-5	-0.5%
Cc1ccccc1OC(C)C(=O)NCCC1=CCCCC1 (configuration not stated)	11	-5	1.5	-2.9	-4	3.0%
CC(C)CC(NC(=O)c1ccc(Cl)cc1Cl)C(=O)O (configuration not stated)	7	1	0.1	-1.8	-5	2.4%
CCOC(=O)/C(C#N)=C/c1cccc(C)c1	3	7	3.7	-5.5	-11	-2.1%
CN(C)c1oc(/C=C/c2ccccc2)nc1C#N	18	23	-0.4	-0.4	4	0.9%
COc1ccc(OC)c(S(=O)(=O)N(C)CC(=O)N2CCN(c3ccccc3F)CC2)c1	-8	0	-0.4	0.0	-12	1.5%
O=c1cc(CN2CCN(S(=O)(=O)c3ccc4ccccc4c3)CC2)nc2sccn12	-1	4	0.8	0.9	-3	2.6%
CC(OC(=O)CNC(=O)c1sc2ccccc2c1Cl)c1ccccc1 (configuration not stated)	11	5	2.4	-1.7	-3	-1.4%
Cc1onc(C(=O)Nc2cccnc2Cl)c1[N+](=O)[O-]	-2	-4	0.1	3.7	2	-2.2%
COc1ccc(NCc2ccc([N+](=O)[O-])s2)cc1	-4	-7	0.7	-1.1	7	-1.5%
O=C(CN1CCC(NC(=O)c2ccccc2Cl)CC1)NCc1ccco1	-1	-5	-0.4	-7.5	-11	1.9%
COc1cc(NC(=O)c2c(-c3ccccc3Cl)noc2C)c2ncccc2c1	2	19	1.6	4.1	1	-1.8%
COc1ccc(Nc2nc3c([nH]2)c(=O)[nH]c(=O)n3C)cc1	-1	2	-0.2	10	6	0.4%
CC(=O)Nc1ccc(C(=O)Nc2ccc3c(c2)OCCO3)cc1	0	-4	0.5	-2.5	-12	2.2%
Cc1ccnc(NCc2cc(C)ccc2O)c1	-4	9	0.6	4.4	-4	-0.4%
CC(C)(C)NC(=O)CN(Cc1ccc2c(c1)OCO2)C(=O)CNS(=O)(=O)c1ccc(F)cc1	-23	54	-0.6	-1.9	-8	0.2%
O=C(NCc1ccccc1)C(=O)Nc1nc(-c2ccccc2)cs1	0	5	1.0	1.2	-3	3.2%
Cc1ccc(-c2ncccc2OC(=O)C23CC4CC(CC(C4)C2)C3)cc1	3	66	2.4	-2.7	-10	-1.7%[38.3 µM]
COc1cc(CC(=O)OCC(=O)NCc2cccs2)cc(OC)c1OC	3	8	0.4	-0.2	-17	0.5%
Cc1csc(NC(=O)Cc2ccc(Cl)cc2)n1	3	-9	1.3	0.0	-1	-0.5%
O=C(Nc1nnc(-c2ccccc2)o1)Nc1ccccc1Cl	0	-11	-0.5	-6.2	-15	-0.3%
CC1=NOC(=O)/C1=C\c1ccc(-c2ccc(Cl)c(C(=O)O)c2)o1	?	-12	0.8	10	1	-3.9%

One compound at a time, from the list above.
Results for Cc1ccc(-c2ccc(CCC(=O)O)n2CC2CCCO2)cc1 (configuration not stated) : Six1-Eya2 inh: -3; TRPML1 blocker: -9; TRPML1 ag: -0.6; D2 ag: -2.7; D2 potentiator: -10; PINK1 modulator: 0.9%[38.3 µM]
Results for COc1cc(CC(=O)OCC(=O)NCc2cccs2)cc(OC)c1OC : Six1-Eya2 inh: 3; TRPML1 blocker: 8; TRPML1 ag: 0.4; D2 ag: -0.2; D2 potentiator: -17; PINK1 modulator: 0.5%

Next entries:
canonical_smiles	Six1-Eya2 inh	TRPML1 blocker	TRPML1 ag	D2 ag	D2 potentiator	PINK1 modulator
O=C(CC[C@H]1O[C@@H](n2ccc(=O)[nH]c2=O)[C@H](O)[C@@H]1O)N[C@H](Cc1ccccc1)C(=O)NCC1CCCO1 (some centres not stated)	-16	.	0.4	-2.0	-2	0.3%
C[C@H]1CN([C@@H](C)CO)C(=O)CCCn2nncc2CO[C@@H]1CN(C)Cc1ccc(-c2ccccc2)cc1	3	-16	2.0	3.5	6	2.6%
Cc1ccc(-c2nnn(CC(=O)Nc3cccc4cccnc34)n2)o1	-12	-3	-0.2	-2.8	-2	0.4%
O=C(CCl)c1ccc2[nH]c(=O)oc2c1	1	-5	2.0	-8.4	-17	-0.1%
